# ALR H2O2 inh = inhibitors of human sulfhydryl oxidase ALR. P55789. purified ALR, DTT oxidation, H2O2 HRP-luminol luminescence. inhibition, % (concentration not given with the values). hit rate 3.8% among 290,000;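 active = mean and each replicate at 75% or more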;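 note: stock transfer was 7.5 nL into about 7.5 µL; 0% = neutral wells and 100% = wells with inactivated enzyme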
# Target sequence (P55789 whole entry, looked up): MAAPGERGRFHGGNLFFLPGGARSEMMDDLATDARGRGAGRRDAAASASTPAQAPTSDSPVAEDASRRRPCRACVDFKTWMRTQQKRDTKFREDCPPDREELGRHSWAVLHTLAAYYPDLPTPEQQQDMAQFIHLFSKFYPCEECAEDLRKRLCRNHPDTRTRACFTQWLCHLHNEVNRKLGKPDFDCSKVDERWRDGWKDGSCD
# HNF4A DNA FP = change in binding of human HNF4 alpha to DNA. P41235. HNF4a-FITC DNA binding, fluorescence polarization, 1 h. activity change, % at 10 µM. hit rate 0.3% among 360,000. AID 1224865; in the data active = activity change above about 30%, passing the limit was not always enough;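 note: controls were the assay level and a saturating level of protein; the project sought stronger binding though the title names inhibitors; some compounds called inactive have numbers as strong as hits; positive values seem to mean higher polarization but the record does not say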
# Target sequence (P41235 whole entry, looked up): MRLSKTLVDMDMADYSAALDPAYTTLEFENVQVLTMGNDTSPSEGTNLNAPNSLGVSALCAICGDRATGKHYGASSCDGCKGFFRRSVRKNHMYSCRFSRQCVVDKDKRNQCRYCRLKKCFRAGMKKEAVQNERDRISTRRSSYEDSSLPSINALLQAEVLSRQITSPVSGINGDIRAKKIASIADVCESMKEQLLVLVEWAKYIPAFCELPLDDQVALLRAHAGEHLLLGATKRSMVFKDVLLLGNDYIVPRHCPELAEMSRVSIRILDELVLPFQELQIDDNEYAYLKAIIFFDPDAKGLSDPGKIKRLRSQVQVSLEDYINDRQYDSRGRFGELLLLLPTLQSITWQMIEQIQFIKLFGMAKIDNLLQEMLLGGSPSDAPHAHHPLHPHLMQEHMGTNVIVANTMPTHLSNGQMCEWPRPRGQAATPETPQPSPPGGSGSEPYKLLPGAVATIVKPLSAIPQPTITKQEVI
# rRNA inh HTS = selective bacterial rRNA inhibition in E. coli; E. coli WT GFP vs humanized-ribosome RFP mutants, fluorescence, 24 h; active compounds read low; DMSO median 0, no signal -100; GFP signal change (wild-type ribosome), % (test concentration not listed); hit rate 1.6% among 350,000;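 active = significant combined selectivity score with lowered wild-type GFP, culture density cut under 30%, mutant RFP and density less affected; inactive = any of these conditions unmet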; note: one replicate is shown; some compounds called inactive have numbers as strong as hits
# Vif A3G = inhibitors of Vif binding to APOBEC3G peptide, primary screen, biochemical, TR-FRET, GST-Vif 1-94, biotin-A3G peptide, dose response retest (AID 1117319) | hit rate 0.57% among 260,000 | TR-FRET GST-Vif / biotin-A3G peptide binding; higher % means a stronger effect; test concentration not given here; strong numbers were not always called active | inhibition, %, or IC50 in µM where a hit was titrated;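 active = above the screen mean plus three standard deviations and confirmed in dose response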;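 note: Vif residues 1-94 fused to GST binding biotinylated APOBEC3G peptide 110-148; 0% = full assay without inhibitor and 100% = GST in place of GST-Vif; retest series ran down from 100 µM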
# Ecoli growth = inhibitors of Escherichia coli growth; OD600, 23 h; active compounds read low; OD600 absorbance (concentration not given with the values); hit rate 0.21% among 330,000;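 active = OD600 absorbance below the run mean of sample wells minus 3.6 SD, in any replicate, cut at about 0.56 in these data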;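 note: stock transfer was 300 nL into about 60 µL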
# FGF22 binding = binders of recombinant human FGF22 by thermal shift | AID 651658 | hit rate 1.5% among 340,000 | SYPRO orange fluorescence; percent of sucrose octasulfate shift, DMSO zero | Q9HCT0 | calls only at 9.99 µM;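 active = melting point raised past a set limit in the mean and every replicate; three in four hits are not shown here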
# Target sequence (Q9HCT0 whole entry, looked up): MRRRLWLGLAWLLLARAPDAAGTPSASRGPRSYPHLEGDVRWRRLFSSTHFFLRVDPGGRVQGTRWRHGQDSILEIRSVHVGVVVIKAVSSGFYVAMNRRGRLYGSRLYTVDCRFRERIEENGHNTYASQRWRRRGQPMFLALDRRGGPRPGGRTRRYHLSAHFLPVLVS
# MLL AF4-AF9 inh = blocks AF4 peptide binding to human AF9. hit rate 0.47% among 350,000. inhibition, % at 10 µM. AlphaScreen, biotin-AF4 peptide binding to FLAG-AF9. P42568;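 active = every replicate reaching a set inhibition limit, whatever the replicate mean, cut at about 25% in these data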;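 note: 0% = plate neutral control median and 100% = total signal loss; the record names both 10 and 1 µM as test concentration; the first replicate is given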
# rRNA inh HTS OD600 = further read-out of rRNA inh HTS, marked with its call; OD600 change, %; measured here: OD600 growth;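 optical density of the mix in the first replicate; 0 = DMSO median and -100 = no signal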
# rRNA inh HTS RFP = recorded beside rRNA inh HTS, whose call it bears; RFP signal change, %; measured here: RFP humanized mutant strains;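 first replicate; 0 = DMSO median and -100 = no signal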
# * hit, by the source's call; i = inactive; nt = not tested or not shown; & = joins results of further samples. Not all compounds are listed, so the mix of outcomes need not match the whole.
# Preview (3 entries):
rRNA inh HTS,HNF4A DNA FP,ALR H2O2 inh,MLL AF4-AF9 inh,Ecoli growth,Vif A3G,rRNA inh HTS RFP,rRNA inh HTS OD600,FGF22 binding,canonical_smiles
nt,1.4,-23,nt,0.65,-2%,nt,nt,nt,CC(C)OCC(O)CN1CCN(CC(O)COc2ccc3c(c2)OCO3)CC1 (centres undefined)
1,-0.3,-4,2.2,0.69,nt,-2.4,5,i,CCC(=O)C1CCCN(C(=O)c2ccc(OC3CCN(C(=O)CCOC)CC3)cc2)C1 (centres undefined)
nt,-1.1,24,nt,0.69,5%,nt,nt,nt,Cc1c(C)n(CC(O)CN2C(=O)c3ccccc3S2(=O)=O)c2ccccc12 (centres undefined)

# This part in full, previewed entries included:
rRNA inh HTS,HNF4A DNA FP,ALR H2O2 inh,MLL AF4-AF9 inh,Ecoli growth,Vif A3G,rRNA inh HTS RFP,rRNA inh HTS OD600,FGF22 binding,canonical_smiles
nt,1.4,-23,nt,0.65,-2%,nt,nt,nt,CC(C)OCC(O)CN1CCN(CC(O)COc2ccc3c(c2)OCO3)CC1 (centres undefined)
1,-0.3,-4,2.2,0.69,nt,-2.4,5,i,CCC(=O)C1CCCN(C(=O)c2ccc(OC3CCN(C(=O)CCOC)CC3)cc2)C1 (centres undefined)
nt,-1.1,24,nt,0.69,5%,nt,nt,nt,Cc1c(C)n(CC(O)CN2C(=O)c3ccccc3S2(=O)=O)c2ccccc12 (centres undefined)
2,nt,nt,-3.9,nt,nt,-0.9,1,i,CO[C@H]1CN(C)C(=O)c2cc(NC(=O)c3cc(C)on3)ccc2OC[C@@H](C)N(C)C[C@H]1C
-33,-0.7,nt,15,nt,nt,-2.3,-48,i,OC(c1cccc(F)c1)c1ncc(-c2ccc3ccccc3c2)[nH]1 (centres undefined)
nt,1.6,-16,nt,0.73,26%,nt,nt,nt,COc1ccc(N2CCN(c3oc(COc4ccccc4)nc3C#N)CC2)cc1
3,-0.2,-6,-4.1,0.61,-1%,-1.9,5,i,Cc1ccc(N(CC(=O)Nc2c(C)cccc2C)S(C)(=O)=O)cc1
nt,8.4,-10,nt,0.72,-3%,nt,nt,nt,CCCCN(C(=O)Nc1ccc(OCC)cc1)C1CCN(C(C)=O)CC1
6,-3.4,6,-3.3&-1.2,nt,-12%,12,22,i,C#CCNC(=O)C1=C[C@H](c2coc3ccccc3c2=O)C[C@H](OCCCCO)O1
-25*,-1.2,99*,1.3,0.64,14%,10*,-15*,i,CCOC(=O)c1sc(NC(=O)CSC(=S)N2CCN(C)CC2)nc1C
7,1.2,nt,-3.2,0.66,6%,0.6,6,i,NNC(=O)c1ccc(Cn2cc(Br)cn2)o1
-12,-2.7,nt,9.9,0.7,1%,-10,-6,i,CCS(=O)(=O)N(CC(=O)Nc1cccc2ccccc12)c1ccc(OC)cc1
nt,-12,-28,nt,0.69,-5%,nt,nt,nt,O=C(c1ccco1)N1CCN(CCOCCOc2cccc3ccccc23)CC1
4,-1.3,6,9.6,0.68,-1%,-1.6,14,i,Cc1ccc(C(=O)SC2=NCCS2)cc1
-3,3.2,-3,-19,nt,-1%,-6.6,0,i,N#C/C(=C\c1ccc(OCc2ccc(F)cc2)cc1)C(=O)Nc1cccc(C(=O)O)c1
-14,1.1,5,2.1,0.66,nt,-2.3,-13,i,O=C(CN1CCc2cc3c(cc2C1)OCCCO3)Nc1ccc(S(=O)(=O)N2CCCC2)cc1
-1,-1.8,59,9.8,0.67,nt,-10,-16,i,Cc1ccc2c(c1)-c1nc3ccccc3cc1C2=NC1CCCCC1
4,2.0,3,3.7,0.7,-1%,3.4,4,i,O=C(Nc1ccc(N2CCN(C(=O)C3CC3)CC2)cc1)c1cccs1
nt,-3.7,0,nt,0.68,-1%&0%,nt,nt,nt,CCOc1ccc(OCC)c(NC(=O)CN2CCN(c3cc(C)ccc3C)CC2)c1
0,-4.8,-1,-2.2,0.66,nt,-3.8,3,i,NC(=O)c1ccnc2c(O)cccc12
16,-12,nt,-2.0,0.7,2%,1.3,6,i,CCn1c(SCc2cc(=O)n3ccsc3n2)nc2ccccc21
nt,0.1,nt,nt,0.73,5%,nt,nt,nt,COCCn1c(CCC(=O)O)nc2c1c(=O)[nH]c(=O)n2CC(C)C
nt,-2.4,0,nt,0.65,49%,nt,nt,nt,CC(C)OCCCNC(=O)c1cccs1
3,nt,nt,0.4,nt,nt,-2.3,1,i,CN(C)C(=O)C[C@H]1CC[C@@H](NC(=O)C2CCC2)[C@@H](CO)O1
-3,nt,nt,5.6,nt,nt,-2.9,4,i,C[C@H](CO)N1C[C@H](C)[C@@H](CN(C)S(=O)(=O)c2ccc(Cl)cc2)Oc2ccc(NC(=O)CCCN(C)C)cc2CC1=O
10,-1.1,nt,8.4,0.79,nt,-7.0,10,i,CNC(=O)C1CCN(S(=O)(=O)c2c(C)noc2/C=C/c2ccccc2F)CC1
5&9,-0.7,nt,-2.8&-2.1,0.73,3%,-3.6&1.2,1&2,i,Cc1noc(C)c1NC(=O)N(C)C[C@H]1Oc2ccc(NC(=O)c3ccncc3)cc2C(=O)N([C@H](C)CO)C[C@@H]1C
1,nt,nt,-2.6,nt,nt,-1.0,3,i,O=C(NCC(F)(F)F)[C@H]1[C@H](CO)[C@H]2Cn3c(cccc3=O)[C@@H]1N2C(=O)C1CCCC1
4,-0.6,nt,2.1,0.7,nt,0.4,6,i,COc1ccc2[nH]c3c(c2c1)CCN1C(=O)C(CC(=O)NCc2ccco2)C[C@H](C(=O)N2CCCCC2)[C@@]31C (some centres undefined)
23,-15,-30,5.4,0.65,33%,17,25,i,C=CCn1c(C)cc(-c2csc(NCC)n2)c1C
3,-1.4,-2,1.6,nt,nt,-0.6,3,i,CCOc1ccccc1/C=N/NC(=O)c1nnn(-c2nonc2N)c1CN1CCCC1
3,nt,nt,1.6,nt,nt,2.2,14,i,CO[C@@H](CN(C)C(=O)c1cnccn1)[C@@H](C)CN([C@H](C)CO)S(=O)(=O)c1ccccc1
-1,nt,nt,0.1,nt,nt,-0.3,-5,i,COc1ccc(-c2cnc3c(c2)C(=O)N([C@@H](C)CO)C[C@@H](C)[C@@H](CN(C)Cc2ccccc2)O3)cc1
6,0.4,-5,-1.9,0.61,-7%,0.7,8,i,OCc1ncc(-c2ccccc2)s1
nt,7.5,-5,nt,0.79,14%,nt,nt,nt,Cn1c(=O)[nH]c(=O)c2c1nc(N1CCc3ccccc3C1)n2CCSc1nc2ccccc2s1
-2,0.9,nt,5.5,0.67,-4%,6.6,-19,i,COc1ccc(OC)c(CN2CCN(C(=O)[C@@H](NC(=O)c3cccc(C)c3)C(C)C)CC2)c1
-18,-0.6,-1,6.8,0.64,-1%,12,12,i,O=C(C[n+]1ccc(-c2ccccc2)cc1)Nc1ccc([N+](=O)[O-])cc1
-3,3.6,4,2.4,0.64,-8%,-1.0,-2,i,CC(=O)Nc1ccc(C(=O)COC(=O)C2CCCCC2)c(F)c1
4,-0.9,100*,21,0.65,5%,1.1,2,i,Cc1ccc(C2=CSC3=NNC4(CCCCC4)NN23)cc1
-16,-1.7,2,-0.2,nt,7%,-10,-22,i,CS(=O)(=O)N1CCc2cc(C(=O)Nc3ccccc3Cl)ccc21
5,nt,nt,0.8,nt,nt,-1.1,3,i,O=C(C[C@@H]1CC[C@H](NC(=O)CN2CCOCC2)[C@@H](CO)O1)NCc1cccc(F)c1
-11,nt,nt,2.7,nt,nt,-1.3,-6,i,O=C(c1cccc(F)c1)N1CC[C@@H]2[C@H](CO)Nc3ccc(C#Cc4ccc(F)cc4)cc3[C@@H]21
2,1.9,17,10,nt,nt,-2.2,4,i,Cc1ccc(-c2csc(N3CCC[C@@H]3C(=O)NCCn3c(-c4ccncc4)nc4ccccc43)n2)cc1
-1,0.9,-1,0.1,nt,nt,1.5,-5,i,Cc1nc(CNC(=O)C2CCC(=O)N(CCc3ccc(Cl)cc3)C2)sc1C (centres undefined)
6,-0.2,4,0.5,0.69,7%,-3.2,10,i,O=C1Nc2ccccc2Nc2ccccc21
3,0.8,nt,-1.8,0.7,-4%,-2.1,11,i,C[C@@H]1CN(S(=O)C(C)(C)C)[C@@H](CCO)/C1=C\c1ccccc1 (some centres undefined)
nt,-3.9,98*,nt,0.62,-7%,nt,nt,nt,N#Cc1nc(-c2ccco2)oc1NCCc1ccccc1
13,0.9,-6,1.0,0.67,17%,3.0,4,i,Cc1nnc(Sc2cc(C(=O)NC3CC3)c3ccccc3n2)s1
nt,2.6,-5,nt,0.71,3%,nt,nt,nt,CCOC(=O)CN(C(=O)c1ccccc1)c1ccccc1C
-5,nt,nt,0.2,nt,nt,1.6,-26,i,COc1ccc2c3c(n(C)c2c1)[C@@H](CO)N(C)CC31CN(S(=O)(=O)c2cccc(F)c2)C1
6,4.8,nt,-31,0.74,-2%,1.8,10,i,CCOc1cccc(OCCCCn2cnc3ccccc3c2=O)c1
nt,-0.7,-13,nt,0.7,2%,nt,nt,nt,CCCc1cc(=O)[nH]c(SCC(=O)N(CC)C2CCS(=O)(=O)C2)n1 (centres undefined)
-1,-1.0,nt,-3.3,nt,nt,-5.0,11,i,C=C(C)Cn1c2ccc(NC(=O)CCc3cccnc3)cc2c(=O)n1C
-4,-1.6,1,-0.5,0.64,nt,0.3,-3,i,CCN(Cc1nc(-c2ccccc2)no1)C(=O)c1ccco1
0,3.1,8,1.1,0.65,nt,2.6,-4,i,O=C(Nc1ccc(N2CCN(C(=O)c3ccco3)CC2)cc1)c1ccccc1Br
-15,3.0,2,-9.1,0.68,2%,0.1,-22,i,COc1cc(CN2CCCC(C(=O)c3ccc(SC)cc3)C2)cc(Cl)c1O (centres undefined)
-4,1.7,-5,-1.5,0.69,3%,2.0,-8,i,Clc1ccccc1Cc1noc(CN2CCCCC2c2ccccn2)n1 (centres undefined)
-3,nt,nt,1.6,nt,nt,3.9,-25,i,CN(C)C(=O)C[C@@H]1CC[C@@H]2[C@H](COc3ccc(NC(=O)Nc4cccc(Cl)c4)cc3C(=O)N2C)O1
2,1.1,-2,1.2,0.68,nt,-0.7,12,i,O=c1[nH]c(=O)n(C2OC(CO)C(O)C2O)cc1Br (centres undefined)
-5,nt,nt,0.2,nt,nt,0.6,-10,i,COc1cccc(S(=O)(=O)Nc2ccc3c(c2)[C@H]2C[C@H](CC(=O)NCc4cccc(F)c4)O[C@@H](CO)[C@H]2O3)c1

# Continued.
rRNA inh HTS,HNF4A DNA FP,ALR H2O2 inh,MLL AF4-AF9 inh,Ecoli growth,Vif A3G,rRNA inh HTS RFP,rRNA inh HTS OD600,FGF22 binding,canonical_smiles
nt,0.9,0,1.2,0.7,0%,nt,nt,i,CCC1(CC)NC(=O)N(CC(=O)OCC(=O)Nc2ccccc2OC(F)F)C1=O
nt,2.7,-2,nt,0.79,-24%,nt,nt,nt,CCCC1(c2ccccc2)NC(=O)N(CC(=O)Nc2sc(-c3ccccc3)cc2C(=O)OCC)C1=O (centres undefined)
-1,-0.5,-6,2.7,nt,nt,-0.1,3,i,CN1CCN(CCC(=O)N/N=C/c2ccccn2)CC1
10,205,98*,-3.9,0.68,nt,31,1,i,CCN(CC)c1ccc(/C=C2\C(=N)N3N=C(CC(=O)N4CCOCC4)SC3=NC2=O)cc1
-26,-47,-20,-0.8,0.72,-1%,-4.4,-33,i,CCCc1nn(-c2cc(Cl)ccc2OC)c2c1C(=O)CC(C)(C)C2
nt,-7.3,0,nt,0.77,-6%&-4%,nt,nt,nt,COc1ccc(S(=O)(=O)N(CCCN2CCOCC2)Cc2ccc(OC)c(OC)c2)cc1
10,1.3,0,-3.4,0.66,nt,0.1,4,i,O=S(=O)(Nc1cccc(S(=O)(=O)N2CCOCC2)c1)c1cccs1
-1,2.9,-10,5.7,0.79,nt,1.5,1,i,Cc1ccccc1NC(=S)NC(C)C(c1cccs1)N1CCOCC1 (centres undefined)

# Source: PubChem BioAssay
